A1 apoptosis 2: A1 inhibitors via caspase activation, primary screen, cell-based, luminescence, HTS, two replicates; MEF A1-2A-BIM cells, caspase-Glo luminescence, 3 h; percent of clofoctol response, DMSO zero; caspase activation, % (test concentration not listed); 24,000 tested, under 10 active; in the data active = caspase activation above about 5.9%;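 note: wells of about 30 µL received 50 nL stock; the first replicate is given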
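System: mouse embryonic fibroblasts co-expressing A1 and BIM (A1-2A-BIM), primed for A1 dependence; amount: 2500 cells/well; doses: 50 nL pinned compound; schedule: cells settled overnight, compound exposure 3 h at 37 °C, 5% CO2; detection: Caspase-Glo 3/7 luminescence, 1 h at room temperature; read-out: Caspase-3/7 activation, seen as rise in luminescence signal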
* hit, by the source's call. Some of the compounds tested, so the mix of outcomes need not match the whole.

mol | A1 apoptosis 2
C[C@@H]1CN([C@@H](C)CO)C(=O)c2cc(NC(=O)CCC(F)(F)F)ccc2O[C@@H]1CN(C)Cc1ccc(Oc2ccccc2)cc1 | 0.9
Cc1ccc(S(=O)(=O)N(C)C[C@H]2OCCCC[C@H](C)Oc3ccc(NC(=O)Nc4ccc(F)cc4)cc3C(=O)N([C@H](C)CO)C[C@H]2C)cc1 | 0.7
C[C@@H]1CCCCO[C@H](CN(C)C(=O)Cc2ccccc2)[C@@H](C)CN([C@H](C)CO)C(=O)c2cc(NC(=O)Cc3ccccc3)ccc2O1 | 1.1
C[C@@H]1CN([C@H](C)CO)C(=O)c2cc(NS(=O)(=O)c3ccccc3)ccc2O[C@@H](C)CCCCO[C@@H]1CN(C)S(=O)(=O)c1ccc(Cl)cc1 | -1.2
C[C@H]1CN([C@@H](C)CO)C(=O)Cc2cc(NS(C)(=O)=O)ccc2O[C@@H]1CN(C)CC1CC1 | 0.3
C[C@H](CO)N1C[C@H](C)[C@H](CN(C)S(=O)(=O)c2ccc(Cl)cc2)Oc2c(NC(=O)c3nc4ccccc4s3)cccc2C1=O | -0.3
CNC[C@@H]1OCCCC[C@@H](C)Oc2ccc(NC(=O)Cc3ccccc3)cc2C(=O)N([C@@H](C)CO)C[C@H]1C | -0.1
C[C@H]1CN([C@@H](C)CO)C(=O)Cc2cc(NC(=O)C3CCCCC3)ccc2O[C@@H]1CN(C)S(=O)(=O)c1cccs1 | -1.4
COC(=O)c1cn(CC(=O)Nc2ccon2)nn1 | -0.5
CNC[C@H]1Oc2ccc(NC(=O)C3CCCCC3)cc2C(=O)N([C@H](C)CO)C[C@@H]1C | -0.8

Structures above that contain four or more nitrogen atoms, in the order listed:
mol | A1 apoptosis 2
Cc1ccc(S(=O)(=O)N(C)C[C@H]2OCCCC[C@H](C)Oc3ccc(NC(=O)Nc4ccc(F)cc4)cc3C(=O)N([C@H](C)CO)C[C@H]2C)cc1 | 0.7
C[C@H](CO)N1C[C@H](C)[C@H](CN(C)S(=O)(=O)c2ccc(Cl)cc2)Oc2c(NC(=O)c3nc4ccccc4s3)cccc2C1=O | -0.3
COC(=O)c1cn(CC(=O)Nc2ccon2)nn1 | -0.5

Next part
mol | A1 apoptosis 2
COc1ccc(NC(=O)Nc2ccc3c(c2)C(=O)N([C@H](C)CO)C[C@@H](C)[C@@H](CN(C)C(=O)Nc2cccc4ccccc24)O3)cc1 | -1.4
C[C@H](CO)N1C[C@H](C)[C@H](CN(C)C(=O)Nc2cccc3ccccc23)OCCCC[C@H](C)Oc2ccc(NC(=O)Nc3ccc4c(c3)OCO4)cc2C1=O | 0.8
C[C@@H]1CCCCO[C@H](CN(C)C(=O)c2ccncc2)[C@H](C)CN([C@H](C)CO)C(=O)c2cc(NC(=O)C3CCCCC3)ccc2O1 | 1.4
C[C@@H]1CN([C@H](C)CO)C(=O)Cc2cc(NC(=O)NC3CCCCC3)ccc2O[C@@H]1CN(C)Cc1ccc(C(F)(F)F)cc1 | 2.5
C[C@@H]1CN([C@H](C)CO)C(=O)c2cc(NS(=O)(=O)c3cn(C)cn3)ccc2O[C@@H]1CN(C)C(=O)Nc1ccc2c(c1)OCO2 | -0.9
C[C@@H]1CN([C@H](C)CO)C(=O)c2cccc(NC(=O)Nc3ccc4c(c3)OCO4)c2O[C@@H]1CN(C)CC1CCCCC1 | -0.8
Cc1ccc(S(=O)(=O)Nc2ccc3c(c2)C(=O)N([C@@H](C)CO)C[C@H](C)[C@H](CN(C)C(=O)Nc2c(C)noc2C)OCCCC[C@@H](C)O3)cc1 | 0.7
C[C@H]1CCCCO[C@H](CN(C)C(=O)c2ccncc2)[C@@H](C)CN([C@@H](C)CO)C(=O)c2cc(NC(=O)CCC(F)(F)F)ccc2O1 | -0.1
C[C@@H]1CCCCO[C@H](CN(C)C(=O)Nc2ccc(F)cc2)[C@@H](C)CN([C@H](C)CO)C(=O)c2cc(NS(=O)(=O)c3ccccc3)ccc2O1 | -0.2
C[C@@H]1CCCCO[C@@H](CN(C)S(=O)(=O)c2ccccc2)[C@H](C)CN([C@H](C)CO)C(=O)c2cc(N(C)C)ccc2O1 | -1.1
Cc1noc(C)c1NC(=O)Nc1ccc2c(c1)C(=O)N([C@H](C)CO)C[C@H](C)[C@H](CN(C)CC1CC1)OCCCC[C@H](C)O2 | 0.1
COc1ccc(S(=O)(=O)Nc2ccc3c(c2)C(=O)N([C@@H](C)CO)C[C@H](C)[C@@H](CN(C)S(=O)(=O)c2ccc(Cl)cc2)OCCCC[C@@H](C)O3)cc1 | 0.6
C[C@H]1CN([C@@H](C)CO)C(=O)c2cc(NC(=O)Nc3ccc4c(c3)OCO4)ccc2O[C@H]1CN(C)Cc1ccncc1 | 0.3
C[C@@H]1CN([C@@H](C)CO)C(=O)Cc2cc(NC(=O)NC3CCCCC3)ccc2O[C@H]1CN(C)C(=O)Nc1ccc(C(F)(F)F)cc1 | -0.3
Cc1ccc(S(=O)(=O)Nc2ccc3c(c2)C(=O)N([C@@H](C)CO)C[C@H](C)[C@H](CN(C)C(=O)Nc2ccc(C(F)(F)F)cc2)OCCCC[C@H](C)O3)cc1 | -0.8
C[C@@H]1CN([C@@H](C)CO)C(=O)CCCn2cc(nn2)CO[C@H]1CN(C)C(=O)CCCN(C)C | 0.1
C=CC[C@]1(C(=O)OC)N=C(c2ccc(OCCCO)cc2)O[C@H]1c1ccccc1CN=[N+]=[N-] | -1.6
C[C@@H]1CCCCO[C@H](CN(C)Cc2ccc(Cl)c(Cl)c2)[C@@H](C)CN([C@H](C)CO)C(=O)c2cc(NC(=O)Nc3ccccc3)ccc2O1 | -1.3
C[C@@H]1CN([C@H](C)CO)C(=O)Cc2cc(NS(=O)(=O)c3cccs3)ccc2O[C@@H]1CN(C)C(=O)Nc1cccc2ccccc12 | 1.8
C[C@H]1CN([C@@H](C)CO)C(=O)c2cc(NC(=O)Nc3ccc4c(c3)OCO4)ccc2O[C@@H]1CN(C)Cc1ccc(Oc2ccccc2)cc1 | 0.9
Cc1noc(C)c1S(=O)(=O)Nc1ccc2c(c1)C(=O)N([C@@H](C)CO)C[C@H](C)[C@@H](CN(C)C(=O)NC1CCCCC1)OCCCC[C@H](C)O2 | 1.0
C[C@@H]1CN([C@H](C)CO)C(=O)c2cc(NS(=O)(=O)c3ccc(Cl)cc3)ccc2O[C@@H]1CN(C)Cc1ccc2c(c1)OCO2 | 0.9
C[C@@H]1CN([C@H](C)CO)C(=O)Cc2cc(NC(=O)C3CC3)ccc2O[C@@H]1CN(C)C(=O)Nc1ccc2c(c1)OCO2 | -0.8
C[C@@H]1CCCCO[C@H](CN(C)S(=O)(=O)c2ccc(F)cc2)[C@@H](C)CN([C@@H](C)CO)C(=O)c2cc(NS(=O)(=O)c3ccccc3)ccc2O1 | -0.8
Cc1noc(C)c1NC(=O)N(C)C[C@H]1Oc2ccc(NC(=O)Nc3ccccc3)cc2CC(=O)N([C@@H](C)CO)C[C@H]1C | 0.3
Cc1noc(C)c1S(=O)(=O)N(C)C[C@@H]1OCCCC[C@@H](C)Oc2ccc(NC(=O)C3CCCCC3)cc2C(=O)N([C@@H](C)CO)C[C@H]1C | 1.1
C[C@H](CO)N1C[C@H](C)[C@@H](CN(C)S(=O)(=O)c2ccc(Cl)cc2)Oc2c(NC(=O)Nc3ccccc3)cccc2C1=O | -0.3
C[C@H]1CN([C@@H](C)CO)C(=O)c2cc(NS(=O)(=O)c3ccc(Cl)cc3)ccc2O[C@H]1CN(C)C(=O)Nc1ccc(C(F)(F)F)cc1 | -0.4
C[C@@H]1CCCCO[C@@H](CN(C)Cc2ccncc2)[C@@H](C)CN([C@H](C)CO)C(=O)c2cc(NS(=O)(=O)c3cccs3)ccc2O1 | -0.4
COc1ccc(NC(=O)Nc2ccc3c(c2)C(=O)N([C@H](C)CO)C[C@@H](C)[C@H](CN(C)Cc2ccc(C(=O)O)cc2)O3)cc1 | 0.6

Random excerpt: 3 compounds from above, in no set order.
mol | A1 apoptosis 2
C[C@@H]1CCCCO[C@H](CN(C)S(=O)(=O)c2ccc(F)cc2)[C@@H](C)CN([C@@H](C)CO)C(=O)c2cc(NS(=O)(=O)c3ccccc3)ccc2O1 | -0.8
COc1ccc(NC(=O)Nc2ccc3c(c2)C(=O)N([C@H](C)CO)C[C@@H](C)[C@H](CN(C)Cc2ccc(C(=O)O)cc2)O3)cc1 | 0.6
Cc1noc(C)c1S(=O)(=O)Nc1ccc2c(c1)C(=O)N([C@@H](C)CO)C[C@H](C)[C@@H](CN(C)C(=O)NC1CCCCC1)OCCCC[C@H](C)O2 | 1.0

Next compounds.
mol | A1 apoptosis 2
COc1ccc(S(=O)(=O)N(C)C[C@H]2OCCCC[C@H](C)Oc3ccc(NC(=O)Nc4ccc(C(F)(F)F)cc4)cc3C(=O)N([C@@H](C)CO)C[C@H]2C)cc1 | -0.3
COc1ccc(CN(C)C[C@@H]2OCCCC[C@@H](C)Oc3ccc(N(C)C)cc3C(=O)N([C@@H](C)CO)C[C@H]2C)cc1 | 0.9
C[C@H]1CCCCO[C@@H](CN(C)S(=O)(=O)c2cn(C)cn2)[C@@H](C)CN([C@@H](C)CO)C(=O)c2cc(NC(=O)NC3CCCCC3)ccc2O1 | -0.6
COc1ccc(-c2cnc3c(c2)C(=O)N([C@H](C)CO)C[C@H](C)[C@H](CN(C)S(=O)(=O)c2ccc(OC)cc2)O3)cc1 | 1.8
COc1ccc(NC(=O)N(C)C[C@@H]2OCCCC[C@@H](C)Oc3ccc(NC(=O)c4ccccc4)cc3C(=O)N([C@@H](C)CO)C[C@@H]2C)cc1 | -0.8
C[C@@H]1CN([C@H](C)CO)C(=O)Cc2cc(NC(=O)NC3CCCCC3)ccc2O[C@@H]1CN(C)Cc1ccccc1 | -0.1
C[C@@H]1CCCCO[C@@H](CN(C)C)[C@H](C)CN([C@H](C)CO)C(=O)c2cc(NC(=O)c3ccncc3)ccc2O1 | -1.4
C[C@@H]1CN([C@H](C)CO)C(=O)c2cc(NC(=O)C3CC3)ccc2O[C@H]1CN(C)Cc1ccncc1 | 0.6
C[C@H]1CN([C@@H](C)CO)C(=O)c2cccc(NC(=O)Nc3ccc4c(c3)OCO4)c2O[C@@H]1CN(C)S(=O)(=O)c1cccs1 | -1.2
COc1ccc(NC(=O)N(C)C[C@H]2Oc3ccc(NC(=O)Nc4ccc(C(F)(F)F)cc4)cc3CC(=O)N([C@@H](C)CO)C[C@H]2C)cc1 | -0.4
COc1ccc(/C=N/NC(=O)c2cccc(C(=O)NO)c2)cc1 | -2.5
C[C@H](CO)N1C[C@H](C)[C@H](CN(C)S(=O)(=O)c2cn(C)cn2)Oc2ccc(NC(=O)Cc3ccccc3)cc2CC1=O | 0.7
C[C@@H]1CCCCO[C@@H](CN(C)S(=O)(=O)c2cn(C)cn2)[C@H](C)CN([C@H](C)CO)C(=O)c2cc(NC(=O)c3ccccc3)ccc2O1 | 0.6
C[C@@H]1CN([C@H](C)CO)C(=O)Cc2cc(NC(=O)Nc3ccc(F)cc3)ccc2O[C@@H]1CN(C)S(=O)(=O)c1ccc(Cl)cc1 | -0.1
Cc1noc(C)c1NC(=O)N(C)C[C@@H]1OCCCC[C@@H](C)Oc2ccc(NC(=O)c3ccccc3)cc2C(=O)N([C@@H](C)CO)C[C@H]1C | 1.0
CNC[C@@H]1Oc2ccc(NS(=O)(=O)c3cccs3)cc2C(=O)N([C@@H](C)CO)C[C@@H]1C | -0.4
C[C@@H]1CCCCO[C@H](CN(C)C(=O)c2ccccc2)[C@@H](C)CN([C@H](C)CO)C(=O)c2cc(NC(=O)CCC(F)(F)F)ccc2O1 | 0.5
C[C@H](CO)N1C[C@H](C)[C@@H](CN(C)Cc2ccccc2)Oc2c(NC(=O)Nc3ccccc3)cccc2C1=O | -0.7
C[C@@H]1CN([C@@H](C)CO)C(=O)c2cc(NC(=O)c3ccncc3)ccc2O[C@H]1CN(C)C(=O)Nc1cccc2ccccc12 | -0.3
COc1ccc(S(=O)(=O)N(C)C[C@H]2Oc3ccc(NC(=O)Cc4ccccc4)cc3C(=O)N([C@H](C)CO)C[C@H]2C)cc1 | 0.8
C[C@H]1CN([C@@H](C)CO)C(=O)Cc2cc(NC(=O)CCCCCC(=O)Nc3ccccc3N)ccc2O[C@H]1CN(C)S(=O)(=O)c1cn(C)cn1 | -1.0
CC(C)NC(=O)Nc1ccc2c(c1)C(=O)N([C@@H](C)CO)C[C@H](C)[C@@H](CN(C)Cc1ccc(C(=O)O)cc1)O2 | -0.8
COc1ccc(NC(=O)N(C)C[C@@H]2Oc3c(NC(=O)c4cnccn4)cccc3C(=O)N([C@@H](C)CO)C[C@@H]2C)cc1 | 0.6
C[C@@H]1CN([C@H](C)CO)C(=O)Cc2cc(NC(=O)Cc3ccccc3)ccc2O[C@@H]1CN(C)Cc1ccc(-c2ccccc2)cc1 | 0.9
C[C@@H]1CN([C@@H](C)CO)C(=O)c2cc(NC(=O)C3CC3)ccc2O[C@@H]1CN(C)Cc1ccncc1 | 0.7
Cc1cc(C(=O)Nc2cccc3c2O[C@@H](CN(C)Cc2ccc(C(F)(F)F)cc2)[C@H](C)CN([C@@H](C)CO)C3=O)n(C)n1 | -1.1
Cc1noc(C)c1NC(=O)N(C)C[C@@H]1Oc2c(NC(=O)C3CCOCC3)cccc2C(=O)N([C@H](C)CO)C[C@@H]1C | -0.4
CC(C)NC(=O)N(C)C[C@@H]1Oc2ccc(NC(=O)NC3CCCCC3)cc2C(=O)N([C@H](C)CO)C[C@@H]1C | -0.2
